# hNpr1 antagonist: antagonists of human natriuretic peptide receptor Npr1; HEK293 hNpr1 GloSensor cGMP, ANP-stimulated luminescence; Potency, µM (doses to about 46.3 µM), without a hit: at the top dose activity change, negative = inhibition, most hits filed as inhibitors; hit rate 1.6% among 76,000; active = well fitted inhibition curve with a large enough effect; inconclusive = small, poorly fitted or top-dose-only effect; inactive = no such curve, though single readings can be large or run the other way;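 also: nearly all actives have a fitted effect of over 60% in size; nearly all hits also lower the signal before the agonist is added; a reference antagonist and vehicle were the controls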
# Target sequence (P16066 whole entry, looked up): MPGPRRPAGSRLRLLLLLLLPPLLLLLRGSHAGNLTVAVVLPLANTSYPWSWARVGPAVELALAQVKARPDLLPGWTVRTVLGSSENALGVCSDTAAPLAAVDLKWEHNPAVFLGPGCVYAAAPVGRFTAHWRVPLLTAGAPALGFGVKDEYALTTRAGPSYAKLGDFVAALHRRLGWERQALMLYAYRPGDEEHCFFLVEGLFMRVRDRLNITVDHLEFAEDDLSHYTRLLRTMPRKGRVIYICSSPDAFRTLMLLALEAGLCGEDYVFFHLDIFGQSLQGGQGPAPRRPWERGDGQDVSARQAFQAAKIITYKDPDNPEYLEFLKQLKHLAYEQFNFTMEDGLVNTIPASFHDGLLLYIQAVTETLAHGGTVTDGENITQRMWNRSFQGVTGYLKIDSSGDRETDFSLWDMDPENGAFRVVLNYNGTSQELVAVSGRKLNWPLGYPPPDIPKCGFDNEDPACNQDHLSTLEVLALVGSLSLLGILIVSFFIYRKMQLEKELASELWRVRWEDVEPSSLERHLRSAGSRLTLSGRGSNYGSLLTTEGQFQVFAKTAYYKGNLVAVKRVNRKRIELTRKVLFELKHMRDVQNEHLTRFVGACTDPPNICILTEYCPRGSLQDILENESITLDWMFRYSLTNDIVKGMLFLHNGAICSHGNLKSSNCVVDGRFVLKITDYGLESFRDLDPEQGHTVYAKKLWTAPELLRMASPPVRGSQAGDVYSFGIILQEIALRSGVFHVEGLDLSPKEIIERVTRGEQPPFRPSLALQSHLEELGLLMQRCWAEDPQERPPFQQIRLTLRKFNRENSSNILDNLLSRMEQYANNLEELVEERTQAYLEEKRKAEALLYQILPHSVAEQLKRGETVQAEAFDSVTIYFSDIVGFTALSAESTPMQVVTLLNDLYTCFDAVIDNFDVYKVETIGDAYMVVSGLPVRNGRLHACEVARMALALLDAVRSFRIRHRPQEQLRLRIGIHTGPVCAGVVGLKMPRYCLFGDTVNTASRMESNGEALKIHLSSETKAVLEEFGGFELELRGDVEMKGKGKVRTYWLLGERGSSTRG
#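 Compound pre-incubated 30 min at room temperature on GloSensor-loaded HEK293 cells stably carrying hNpr1 and the pGS-40F cGMP biosensor. Stimulation uses hNppA at 0.1 nM final; luminescence is taken at baseline and 20 min post-agonist.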
# Starred values were filed as active, the others as inactive; ? = inconclusive; [ ] = dose if it differs, or a comment. % is scaled to controls: 0 for no effect and ±100 for the full control effect; potency is read from the fitted curve at half-maximal effect. The list is partial; the hit share may differ from the screen's.
hNpr1 antagonist | canonical_smiles
-3% | O=[S+]1([O-])NC2(CCN(Cc3ccccc3C(F)(F)F)C2)CNc2ccccc21 (configuration not stated)
2%[70.6 µM] | CC(C)(C)CC(=O)NC[C@H]1OC[C@@H](NC2CCNCC2)[C@@H]1O
-7% | CC(C)CCN1C(=O)CC[C@]2(C(=O)NCCc3cccnc3)CCCC[C@@H]12
2% | COCCn1c(C)cc(C(=O)NCC(=O)N2CCCCCNC(=O)CC2c2ccccc2)c1C (configuration not stated)
5% | COCCCNC(=O)C1COC2(CCC(C)CC2)N1C(=O)c1ccccc1F (configuration not stated)
-24% | O=C(Cc1cccs1)N1CCCN(CCc2ccccc2)c2ccccc21
0% | CCCCNC(=O)C1CCN(C(=O)c2nnn3c2COC(c2ccc(C)cc2)C3)CC1 (configuration not stated)
3% | CCn1cncc1CNC(=O)c1cccc(CCC(C)(C)O)c1
-9% | COc1ccc(C(=O)N2CCC3(CCNC(=O)CC3)CC2)cc1F
-15% | C=CCNC(=O)C(NC(=O)c1cccc(OC)c1)C1CCN(C(=O)c2ccc(F)cc2)CC1 (configuration not stated)

hNpr1 antagonist | canonical_smiles
-1% | COCCNC(=O)[C@@H]1C[C@H](Oc2cccnc2)CN1C(=O)c1ccoc1
-12% | COc1cccc(CN2CCCCCNC(=O)[C@@H]3CCC[C@@H]32)c1
3% | CC(=O)Nc1ccc(-c2ccc(=O)n3c2[C@@H]2C[C@@H](CN(S(=O)(=O)c4ccc(Cl)cc4)C2)C3)cc1
-14% | O=C1CC2(CCN(Cc3cccc4ccccc34)CC2)Oc2ccccc21
-11% | COC[C@@H]1CN(Cc2cnn(C)c2)C[C@H]1C(=O)N(C)C
4% | Cc1ccc(-n2c(C3CCN(C(=O)c4ccccc4C(F)(F)F)CC3)n[nH]c2=O)cc1
3% | O=C1CCC(CCC(=O)N2CCCC2c2ccc(F)cc2)(Cc2cccc3ccccc23)N1 (configuration not stated)
6%[70.6 µM] | O=C1Nc2ccccc2C(=O)N2CC[C@H](NS(=O)(=O)c3cccs3)[C@@H]12
-19%[70.6 µM] | COc1ccc(OCC2(C)COc3ccc(C(=O)NCCc4ccccc4)cc3N2)cc1 (configuration not stated)
2% | Cc1cc(N)n(CC(=O)N2CC[C@@]3(O)CCN(S(C)(=O)=O)C[C@H]3C2)n1

hNpr1 antagonist | canonical_smiles
-2% | Cn1ncc(N2CCC(C(=O)NCCCN3CCc4ccccc4C3)C2)cc1=O (configuration not stated)
? | COc1ccc(-c2cc(C[C@@H]3C[C@H](NC(=O)c4ccccc4)C3(C)C)no2)cc1
1% | COCc1cc(=O)n(CC(=O)NCc2ccc(F)cc2)c(N2CCOCC2)n1
-2% | CS(=O)(=O)c1cnc(NCCc2cnc[nH]2)nc1C1CCCNC1 (configuration not stated)
-8%[70.6 µM] | CC(C)(C)NC(=O)C[C@@H]1CCNC[C@@H]1Cc1cc(-c2ccc(F)cc2)on1
7% | COc1ccc(CCNC(=O)c2cc3c(=O)[nH]c(C)cn3n2)cc1OC
-1% | COC[C@@H]1CN(Cc2cn(C)nc2C)C[C@H]1C(=O)N(C)C
0% | c1ccc(CN2CCC(N3CC(OCC4CC4)C34CCOCC4)CC2)cc1 (configuration not stated)
-13% | O=C(C1CCCC1)N1CCc2nc(-c3ccccc3)nc(-c3ccc(Cl)cc3)c2C1
3% | O=C1NC(=NC2CCCCC2)C2(CCN([S+](=O)([O-])c3cccc(C(F)(F)F)c3)CC2)N1c1cccnc1

hNpr1 antagonist | canonical_smiles
? | Cc1cc(=O)n(CC(=O)Nc2cccc(C(C)C)c2)c(N2CCc3ccccc3C2)n1
5% | Cc1cc2c(cc1C(=O)N1CCC(O)(C(=O)O)CC1)OCCO2
0% | O=C(CCc1nc2ccccc2s1)NCC(=O)N1CCCCCCNC(=O)CC1c1ccccc1 (configuration not stated)
0% | CC(=O)N1CC[C@]2(O)CCN(C(=O)CCCc3ccc(F)cc3)C[C@@H]2C1
-2% | COc1ccc(N2Cc3c(NCC(C)(C)C)ncnc3N(C)CC2=O)cc1
-2% | CCOc1ccc(NC(=O)C2CN(S(=O)(=O)c3cccnc3)CC23CCCCC3)cc1 (configuration not stated)
6%[70.6 µM] | CC(C)N1C[C@@H](F)[C@@H](OCc2nc3ccc(F)cc3[nH]2)C1
-2% | COCCNC(=O)[C@@H]1C[C@H](Oc2ccccc2)CN1C(=O)c1n[nH]c(=O)c2ccccc12
3%[70.6 µM] | CC(C)c1nc2c(c(-c3ccc(O)cc3)n1)CN(CC1CC1)CC2
-19% | Cc1ccc(NC(=O)c2cc3cn(C(C)C)cc3s2)c(C)c1

hNpr1 antagonist | canonical_smiles
7% | CCc1cc(N2CCOCC(O)(CN3CCCC3)C2)nc(N2CCCC2)n1 (configuration not stated)
-12% | Cc1ccccc1NC(=O)Cn1c(=O)n(-c2ccc(F)cc2)c(=O)c2c1cc(C)n2C
2% | COc1ccc(NC(=O)c2cccc3c2CCN3C(=O)Nc2ccc(F)cc2)cc1
-1% | COCc1nc(C2CC(N)C2)cc(N2CCC(Cn3cccn3)CC2)n1 (configuration not stated)
1%[70.6 µM] | CN[C@@H]1[C@H](O)[C@H](CO)O[C@@H]1CNC1CCCCC1
4% | Cc1nc2c(c(-c3ccc(O)cc3)n1)CN([S+](=O)([O-])c1c(C)noc1C)CCC2
3% | O=S(=O)(Cc1ccccc1)N1CCC(OC2CCN(Cc3cccnc3)CC2)CC1
0%[70.6 µM] | COCc1cc(C[C@@H]2CC[C@H](O)[C@@H](CNCc3cccc(OC)c3)O2)no1
4% | Cc1cc(C(=O)N2CCCC(CCc3c(F)cccc3F)C2)nc(C)n1 (configuration not stated)
-5% | O=C(Nc1cccc(Cl)c1F)N1CCC(n2cnnc2C2CC2)C1 (configuration not stated)

hNpr1 antagonist | canonical_smiles
0% | CN(C)CC1(O)CCC2(CCN(C(=O)c3ccccc3)CC2)CC1
-1% | CN1CCN(c2ccc(-c3cc4c(ccn4C)c(C(=O)NCc4cnccn4)n3)cc2)CC1
-13% | O=C(Nc1ccccc1)N1CCn2c(nn(-c3ccc([N+](=O)[O-])cc3)c2=O)C1
-23% | COc1cccc(CC(=O)N[C@@H]2CCC[C@@H](C(=O)NCc3cc(F)cc(F)c3)CC(=O)N(C)C2)c1
-1% | Cc1cc(C(=O)N2C[C@@H](COCC3CC3)[C@H](c3ccncc3)C2)on1
4% | COCCNC(=O)NCCc1noc(C)n1
? | CC1=C[C@@H](CN2CCN(c3cnccn3)CC2)[C@H](C(C)C)C[C@H]1Cc1nnc(-c2cccnc2)o1
-1% | CCN1c2cc(C(=O)N3CCN(c4ccc(OC)cc4)CC3)ccc2C(=O)N2CCCCC21 (configuration not stated)
-17% | CC(C)NS(=O)(=O)c1ccc2c(c1)nc(-c1ccc(-c3ccn[nH]3)o1)n2C(C)C
-1% | CCn1ccc(C(=O)N2CCC(c3cc(Cc4ccccc4)[nH]n3)CC2)n1

hNpr1 antagonist | canonical_smiles
2%[70.6 µM] | OC[C@H]1C[C@@H](NCc2cccc(Cl)c2)[C@H](O)[C@@H]1O
-9% | COc1ccc(NC(=O)CC2=C3CCCCC3NC2=O)cn1 (configuration not stated)
-18% | CCC1=C(C(=O)OC)C(c2ccccc2)N2C(CC(=O)NCC3CC3)=CSC2=N1 (configuration not stated)
-7%[70.6 µM] | c1cncc(-c2nc3ccncc3[nH]2)c1
-8% | CN(C)C(=O)C1CN(C(=O)c2cc(F)ccc2F)CC12CCOCC2 (configuration not stated)
1% | Cc1cc(=O)n(CC(=O)N[C@@H]2CCOC[C@H]2Oc2ccccn2)nc1C
5% | O=C(CCc1ccsc1)N1CCC2(CCCN(Cc3cccnc3)C2=O)C1 (configuration not stated)
13µM* | COCCN1CCOc2nc(-c3cc4ccccc4o3)ncc2C1=O
0% | COc1cccc(N2CC(C(=O)N3CCC(C(=O)N(C)C)C3)NC2=O)c1 (configuration not stated)
0% | Cc1nc(C(=O)N2CCCC(Cn3cc(-c4ccsc4)nn3)C2)cs1 (configuration not stated)

hNpr1 antagonist | canonical_smiles
-10%[70.6 µM] | Cc1nn2c(c1-c1ccccc1-c1ccccc1)N(C(=O)Cc1ccccn1)CCC2
9% | COCCc1noc(-c2ccccc2OC2CNC2)n1
-7% | Cc1cc(Cl)ccc1NC(=O)N1CCCC(Cn2cnc3cccnc32)C1 (configuration not stated)
1% | CNC(=O)N1CCC(Cc2noc(-c3ccncc3)n2)C1 (configuration not stated)
-3% | Cn1cccc1C(=O)N1CCC(N2C[C@H](O)C[C@H]2C(=O)NC2CCCCC2)CC1
1% | COCC(=O)NC1CCC12CCN(C(=O)c1ccco1)CC2 (configuration not stated)
2% | CCCn1c(C)cnc1CC1CCN(C(=O)CCOC)CC1
2% | COc1ccccc1C(=O)Nc1ccc([C@H]2OCC(=O)N(Cc3ccccc3)[C@@H]2CO)cc1
-1% | CC1(C)CN(C(=O)c2cn(CCN3CCNCC3)nn2)C[C@]1(C)O
3%[70.6 µM] | CC(=O)Nc1cccc(-c2nccc3c(=O)cc(-c4ccncc4)oc23)c1

# Sorted by count of non-hydrogen atoms (rising): some entries from above.
hNpr1 antagonist | canonical_smiles
9% | COCCc1noc(-c2ccccc2OC2CNC2)n1
1% | COCC(=O)NC1CCC12CCN(C(=O)c1ccco1)CC2 (configuration not stated)
-1% | CC1(C)CN(C(=O)c2cn(CCN3CCNCC3)nn2)C[C@]1(C)O
3%[70.6 µM] | CC(=O)Nc1cccc(-c2nccc3c(=O)cc(-c4ccncc4)oc23)c1
-3% | Cn1cccc1C(=O)N1CCC(N2C[C@H](O)C[C@H]2C(=O)NC2CCCCC2)CC1
-10%[70.6 µM] | Cc1nn2c(c1-c1ccccc1-c1ccccc1)N(C(=O)Cc1ccccn1)CCC2
2% | COc1ccccc1C(=O)Nc1ccc([C@H]2OCC(=O)N(Cc3ccccc3)[C@@H]2CO)cc1

# 3 of the entries above in order of the hNpr1 antagonist value, largest number first:
SMILES	hNpr1 antagonist
COCCc1noc(-c2ccccc2OC2CNC2)n1	9%
CCCn1c(C)cnc1CC1CCN(C(=O)CCOC)CC1	2%
Cc1cc(Cl)ccc1NC(=O)N1CCCC(Cn2cnc3cccnc32)C1 (configuration not stated)	-7%

# Next structures.
hNpr1 antagonist | canonical_smiles
6% | Cc1cc(-n2cccn2)ccc1CN(C)CC(C)N1CCOCC1 (configuration not stated)
2% | CCc1cc(=O)n(CC(=O)Nc2ccc(C)cc2Cl)c(N2CCOCC2)n1
1% | Cc1n[nH]c(C)c1C(NC(=O)c1scc2c1OCCO2)C(=O)O (configuration not stated)
1%[70.6 µM] | CN1C[C@@H](NC(=O)c2ccccc2)C[C@H]1c1nc(-c2ccncc2)no1
-16%[70.6 µM] | COc1ccc(Cl)cc1-c1ccc2c(c1)C(=O)N1CC[C@H](N)C[C@H]1C(=O)N2
-12% | COc1ccc(C(=O)N2CCCC(Cc3nc(C4CCOCC4)no3)C2)cc1 (configuration not stated)
-25% | O=C(NC1CCN(c2cc(-c3ccccc3)[nH]n2)CC1)c1ccccc1
1% | Cc1cc(C(=O)NC2CCc3nnc(C4CC4)n3CC2)no1 (configuration not stated)
-22%[70.6 µM] | COc1ccccc1CNC(=O)C[C@@H]1CCNC[C@@H]1Cc1cc(-c2ccccc2)on1
2% | Cc1ccc(C)c(CNC(=O)Nc2nc(C)ns2)c1

hNpr1 antagonist | canonical_smiles
-8% | COc1cccc(NC(=O)NC[C@H]2O[C@@H](CC(=O)N3CCc4ccccc43)[C@H](O)[C@@H]2O)c1
-6%[70.6 µM] | COc1cccc(-c2csc(CN3CCCC(C)(NC(C)=O)C3)c2)c1 (configuration not stated)
1% | COCC1CN(C2CCC2)CC12CCN(C(=O)c1ccccc1OC)CC2 (configuration not stated)
2% | Cc1oc2c(c1C(=O)NCCc1ccncc1)CN(C)CC2
-1% | Cc1nnc2n1CCC(NC(=O)CC1=CCCCC1)CC2 (configuration not stated)
-3% | Cc1cn2nc(-c3nc(C4CCCN(C(=O)c5ccc(C)c(F)c5)C4)no3)cc2c(=O)[nH]1 (configuration not stated)
8%[70.6 µM] | CC(=O)N1CCC(Nc2ncccc2-c2cc(-c3ccccc3)nc3c(C)noc23)CC1
-21%[70.6 µM] | O=C(NC1CCCCC1)O[C@@H]1CO[C@H]2[C@@H]1OC[C@@H]2n1nnnc1-c1ccccc1
2% | COCCN1CCC(N2CCN(C(=O)c3ccccc3Br)CC2)C1=O (configuration not stated)
1% | Cc1ccc(-c2nc(C3CC(=O)OC34CCCC4)n(CC(=O)O)n2)o1 (configuration not stated)

hNpr1 antagonist | canonical_smiles
8% | Cc1ccc(C(=O)N2CCC(Cc3nncn3C)CC2)cc1N1CCNC1=O
3% | Cc1cc(-c2nn(-c3ccccc3F)cc2CN(C)C2CCOC2)c(C)s1 (configuration not stated)
-2% | COc1cccc(CC(=O)NCCn2ccn3nc(-c4ccc(C)cc4C)cc3c2=O)c1
9% | O=C(c1ccc(C(F)(F)F)cc1)N1CCN(C2CCN(Cc3cccnc3)C2=O)CC1 (configuration not stated)
-1% | COCC(=O)N[C@@H]1CN(C(=O)C2(c3ccccc3)CC2)CC[C@@H]1c1nc(C)no1
14% | Nc1nccc(N2CCC3(CCC(=O)N(CC4CCCO4)C3)CC2)n1 (configuration not stated)
5% | CN1CC[C@H]2CN(C(=O)COCc3nc4ccc(F)cc4[nH]3)C[C@H]21
2% | CC(=O)N1CCN(S(C)(=O)=O)C[C@@H]1C(=O)N[C@H](Cc1c[nH]c2ccccc12)C(N)=O
5%[70.6 µM] | O=c1c2nc(NCc3ccccc3)ccc2ncn1Cc1ccccn1
2% | COc1cccc(C2CCCN2C(=O)c2cn(Cc3ccc(F)cc3)nn2)c1 (configuration not stated)
14% | Cc1nc2ncccn2c1C(=O)N[C@H]1[C@H]2CCO[C@H]2[C@@H]1N(C)C
-9% | COCCn1c(C)cc(C(=O)N2CCC3(CC2)CC(O)CCO3)c1C (configuration not stated)
8%[70.6 µM] | CC(=O)Nc1ccc(C(O)[C@H]2COCC(=O)N2CC2CCCCC2)cc1 (some centres not stated)
